Screens (PubChem)
V. cholerae motility = Vibrio cholerae motility inhibitors, OD read-out (AID 588778) | Vibrio cholerae motility, OD read-out; higher % means a stronger effect; test concentration not given here; primary cut-off and reference of the scale not given here; strong numbers were not always called active | inhibition, %, or IC50 in µg/mL where a hit was titrated | 10,000 tested, under 10 active; in the data active = confirmed in a dose series; inconclusive = primary hit not retested
V. cholerae motility viability = also measured in V. cholerae motility; calls as there; inhibition, %; measured here: bacterial viability at 10 ug/mL;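 higher means fewer living bacteria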
Numbers without * were called inactive; i = inactive; ? = inconclusive; nt = no result given. These rows are one share of the data (hit frequency here may not be typical).

Start of the data: the first 7 entries, to show the layout:
SMILES	V. cholerae motility	V. cholerae motility viability
Oc1ccc(Cl)cc1C1=NNC(c2ccc(Br)cc2)C1 (stereo unspecified)	1%	-4
CN1CCN(c2ccc([N+](=O)[O-])cc2C#N)CC1	19%	3
Cc1cc(Br)ccc1OCC(=O)NNC(=O)NC1CCCCC1	-29%	-6
O=C1/C(=C\c2ccccc2Cl)SC(=S)N1c1ccc(F)cc1	-1%	-4
COc1ccc(NC(=O)CCCOc2ccccc2OC)c(OC)c1	16%	9
CC1=C(C(=O)OCc2ccccc2)C2(C(=O)Nc3ccc(Br)cc32)C(C(=O)OC(C)(C)C)=C(N)O1 (stereo unspecified)	9%	0
CC(=O)Nc1ccc(S(=O)(=O)Nc2ccc(I)cc2C)cc1	7%	1

Results (from the top)
SMILES	V. cholerae motility	V. cholerae motility viability
Oc1ccc(Cl)cc1C1=NNC(c2ccc(Br)cc2)C1 (stereo unspecified)	1%	-4
CN1CCN(c2ccc([N+](=O)[O-])cc2C#N)CC1	19%	3
Cc1cc(Br)ccc1OCC(=O)NNC(=O)NC1CCCCC1	-29%	-6
O=C1/C(=C\c2ccccc2Cl)SC(=S)N1c1ccc(F)cc1	-1%	-4
COc1ccc(NC(=O)CCCOc2ccccc2OC)c(OC)c1	16%	9
CC1=C(C(=O)OCc2ccccc2)C2(C(=O)Nc3ccc(Br)cc32)C(C(=O)OC(C)(C)C)=C(N)O1 (stereo unspecified)	9%	0
CC(=O)Nc1ccc(S(=O)(=O)Nc2ccc(I)cc2C)cc1	7%	1
Cn1cnnc1-c1cccc(NC(=O)C(c2ccccc2)c2ccccc2)c1	25%	3
CCC(=O)n1c2c(c3ccccc31)Nc1ccccc1N2	13%	6
C#CCOc1c(Br)cc(/C=C(/C#N)c2ccc(C(=O)O)cc2)cc1OC	-5%	-6
CN(C)S(=O)(=O)N(C)c1ccc(O)cc1	-32%	-7
O=C(Nc1ccccc1)N1CCC(C(O)(c2ccccc2)c2ccccc2)CC1	1%	0
COc1ccc(N2C(=O)CC(c3c(-c4ccccc4)cc4ccccn34)C2=O)cc1 (stereo unspecified)	-13%	-6
COc1ccc(-c2onc3ccc(I)cc23)cc1	11%	-1
Cc1cc2nc(SCC(=O)NC3CC3)[nH]c2cc1C	3%	5
COC(=O)c1cc(NC(=O)CN2C(=O)c3cccc4cccc2c34)ccc1Cl	-8%	-10
Cc1ccc(S(=O)(=O)CCSc2nc(-c3cccs3)cc(C(F)(F)F)c2C#N)cc1	6%	-4
CCCc1cc(=O)[nH]c(SCc2ccc(C#N)cc2)n1	4%	-2
CCn1c(SCC(=O)Nc2ccc3c(c2)c2ccccc2n3CC)nnc1-c1cnccn1	-4%	-1
O=C(CSCc1c(Cl)cccc1Cl)Nc1ccccc1C(=O)NCc1ccco1	-5%	-4
COC(=O)Nc1ccc(S(=O)(=O)N2CCCc3cccc(O)c32)cc1	4%	23
CC12CN(C(=O)c3cccs3)CC(C)(CN(C(=O)c3cccs3)C1)C2=O	2%	-4
CN(Cc1ccccc1)C(=O)C1CCCN(Cc2ccccc2C(F)(F)F)C1 (stereo unspecified)	5%	1
CCCCOc1ccc(CC(=O)NCC(=O)NCCc2ccccc2)cc1	2%	-2
CC(C)(C)NCC(O)Cn1cc(C=O)c2ccccc21 (stereo unspecified)	-4%	4
CC1(C)Oc2ccc3ccc(=O)oc3c2C(C=O)=C1Cl	4%	-2
Cc1oc(C(=O)O)cc1CSC(C)C(=O)O (stereo unspecified)	-19%	-5
Cn1nnc2cc(NC(=O)NCCC3=CCCCC3)ccc21	2%	3
Cn1c(=O)c2c(-c3ccc(Br)cc3)nccc2n(C)c1=O	12%	1
Cc1ccc2nc3[nH]c(=O)[nH]c(=O)c3nc2c1	21%	7
Nc1nnc(CCCN2C(=O)c3ccccc3C2=O)s1	2%	2
N#CC1=C(N)Oc2n[nH]c(-c3cccs3)c2C1c1ccc(Br)s1 (stereo unspecified)	-1%	-2
Cc1cc(C(=O)NCc2ccccc2Br)cs1	1%	-4
CNc1nc(Oc2ccccc2C(=O)OC)nc(SC)n1	-2%	0
O=C(Oc1cccc2cccnc12)c1cc2ccccc2oc1=O	25%	0
Cc1n[nH]c(=O)nc1NCCCN(C)C	7%	4
COc1ccc(C(=O)O)cc1NC(=S)NC(=O)c1cc(I)ccc1Cl	0%	-1
O=[N+]([O-])c1cc(Cl)ccc1Oc1ccccc1	22%	7
CCNc1nc(NC(C)(C)C)nc(SCC(N)=O)n1	4%	-3
O=C(COc1ccccc1Br)NCc1cccs1	25%	9

One compound at a time, as listed above.
Entry for `COc1ccc(C(=O)O)cc1NC(=S)NC(=O)c1cc(I)ccc1Cl` = V. cholerae motility: 0%; V. cholerae motility viability: -1
Entry for `COc1ccc(NC(=O)CCCOc2ccccc2OC)c(OC)c1` = V. cholerae motility: 16%; V. cholerae motility viability: 9

More compounds follow.
SMILES	V. cholerae motility	V. cholerae motility viability
CC(NC(=O)c1ccc([N+](=O)[O-])o1)C12CC3CC(CC(C3)C1)C2 (stereo unspecified)	i	71
Cn1c(=O)n(C)c2cc(NC(=O)Nc3cccc(Cl)c3)ccc21	27%	8
Nc1c(-c2ccccc2)cnn1-c1ccc(Br)cc1	-31%	-16
COc1ccc(C(F)(F)F)cc1N/C=C(\C#N)C(N)=S	5%	5
Cc1ccc2oc(C(=O)Nc3ccc(S(=O)(=O)N(C)c4ccccc4)cc3)c(C)c2c1	3%	-4
COc1ccccc1OS(=O)(=O)c1cc(Cl)ccc1Cl	2%	-4
Cc1ccc2cccc(OCc3nnc(-c4ccccc4)o3)c2n1	15%	-2
CC(=O)C1=C(c2ccccc2)NC(=O)NC1c1ccccc1OCC(=O)Nc1ccccc1 (stereo unspecified)	-4%	-1
CCS(=O)(=O)Nc1ccc(-c2nc3ccc(C)cc3s2)cc1	-3%	-4
Nc1nnc(SCC(=O)Nc2ccc(S(=O)(=O)Nc3ncccn3)cc2)s1	5%	0
COC(=O)Cc1ccc(NC(=S)NCCc2ccc(S(N)(=O)=O)cc2)cc1	0%	8
COC(=O)C1=C(C)NC(SCC(=O)Nc2ccccc2)=C(C#N)C1c1ccccc1F (stereo unspecified)	2%	-2
Cc1c(-c2ccccc2)[n+](=O)c(-c2cccs2)c(C)n1[O-]	-7%	-6
O=C(NCC1CCCO1)c1ccc2c(c1)C1C3CCC(C3)C1C(c1ccccc1)N2 (stereo unspecified)	-4%	-4
O=C(O)CCc1c(-c2ccccc2)cc2ccccn12	5%	3
O=C(O)c1cccc(Nc2nc(Nc3ccccc3)nc(N3CCCC3)n2)c1	-13%	-6
CC(=O)Nc1ccc(OCC(O)Cn2nc(C)c(Br)c2C)cc1 (stereo unspecified)	8%	-2
O=C(Nc1cc(Cl)ccc1O)C(c1ccccc1)c1ccccc1	?	nt
CCn1ccc(C(=O)Nc2ccc(Cl)cn2)n1	3%	0
Cn1cnnc1SCC(=O)Nc1ccc2c(c1)OCO2	-16%	-13
Cc1ccc2nsnc2c1S(=O)(=O)NCCc1c(C)[nH]c2ccc(F)cc12	-5%	4
CC(=O)NC(c1ccc2c(c1)OCO2)c1ccc2cccnc2c1O (stereo unspecified)	?	nt
CC(C)(O)C#Cc1ccc(C(=O)NC2CCCCC2)cc1	13%	20
Cc1ccccc1NC(=O)CSc1nc(SCC(=O)Nc2ccccc2C)nc(N2CCCC2)n1	3%	-3
O=C(Nc1ccc(I)cc1F)c1cccnc1	10%	-4
O=C(Nc1nncs1)c1cc(-c2cccs2)nc2ccccc12	-20%	-4
N#Cc1cc(NC(=O)c2ccc(Cl)cc2)c(=O)n2c1sc1ccccc12	13%	-3
CCOC(=O)CNC(=O)c1c(C)noc1C	-2%	-3
CCOC(=O)c1c(NC(=O)CSc2nc(-c3cccc(OC)c3)c(C#N)c(=O)[nH]2)sc2c1CCN(C)C2	-30%	-5
CC(C)CCC1(C)NC(=S)N(c2ccc(Cl)cc2)N1 (stereo unspecified)	12%	3
Cc1ccc(C)c(NC2=NC3(CCCC3)N=C(N)N2)c1	4%	13
COc1ccc(C2C(C#N)C(C#N)N3CCCN23)cc1 (stereo unspecified)	6%	1
OC1CCCCC1Sc1nc2ccccc2s1 (stereo unspecified)	2%	-1
CCC1(C(=O)c2ccc(Cl)cc2)C2C(C)(C)OC(=O)C21C(=O)OC (stereo unspecified)	1%	29
Cc1ccc(NC(=S)NCCCN2CCCC2=O)c(C)c1	11%	-2
O=C(Oc1ccc(Br)cc1Cl)c1ccco1	-4%	-1
Cc1ccc(S(=O)(=O)Nc2cc(C)nn2-c2ccccc2)cc1	-13%	-5
O=S(=O)(NCc1ccco1)N1CCCCCC1	0%	0
CN1C(=O)C2(OCC(COc3ccc(Cl)cc3)O2)c2ccccc21 (stereo unspecified)	-7%	0
O=C(NNc1ccc(F)cc1)Nc1ccc(Cl)c(Cl)c1	47%	50
O=C(C(Cl)Cl)N1CCC(c2ccccc2)C1 (stereo unspecified)	1%	1
Cn1cc(C(CC(=O)O)C(=O)O)c2ccccc21 (stereo unspecified)	-17%	-5
CCn1cc(C(C)NC(=O)c2cc(-c3ccccn3)nc3c(Cl)cccc23)c(C)n1 (stereo unspecified)	-1%	-1
CC(=O)OCCC12CN3CCN(CC(C3)C1=O)C2	4%	-4
CC12CCC(C(=O)Nc3ccc(Cl)cn3)(OC1=O)C2(C)C (stereo unspecified)	-2%	-5
O=C(Nc1ccn(Cc2ccccc2)n1)c1ccc(Br)cc1	11%	36
COc1c(C)cc(Br)cc1C(=O)NC(=S)Nc1sc2c(c1C(N)=O)CCCCC2	2%	-1
Cc1noc(C)c1C(=O)NC1=NCCS1	-16%	-9
Cc1cc2[nH]c(=S)[nH]c2c(Br)c1C	-17%	-12
CCOC(=O)C1CCCN(C(=O)CC(c2ccccc2)c2ccccc2)C1 (stereo unspecified)	22%	0

Other records follow:
SMILES	V. cholerae motility	V. cholerae motility viability
COc1ccc(-c2cc3ccccc3oc2=O)cc1NC(=O)c1ccc(Br)o1	4%	-4
COc1ccc(C(=O)Nn2c(CCC(=O)O)ccc2-c2ccc(F)cc2)cc1OC	17%	12
NC(=O)c1cc(Oc2ccc(Br)cc2)nc2ccccc12	-10%	1
CC(C)(C)Nc1nc(SCc2ccccc2)nc(N2CCOCC2)n1	13%	5
COc1cccc(C(=O)NC(c2cccc([N+](=O)[O-])c2)c2c(O)ccc3ccccc23)c1 (stereo unspecified)	10%	-8
O=C1C2C3c4ccccc4C(c4ccccc43)C2C(=O)N1C1=NCCS1 (stereo unspecified)	12%	0
O=C(CSc1n[nH]c(-c2cccnc2)n1)Nc1ccnc2ccccc12	9%	8
O=C(NCCn1cc(Cl)cn1)Nc1cccc(Cl)c1Cl	7%	21
Cc1cc(C)n(-c2nc3sc4c(c3c(=O)[nH]2)CCCC4)n1	13%	-2
Nn1cnnc1N/N=C/c1cc(Cl)ccc1O	10%	2
O=C(c1cccc(F)c1)N(Cc1ccccc1)c1ccccn1	4%	-2
Cc1cc(OCC(=O)NN2CCOCC2)ccc1[N+](=O)[O-]	0%	-2
O=C(O)c1ccc(SC(C(=O)O)c2ccccc2)cc1 (stereo unspecified)	-10%	-4
O=C(Nc1cccnc1)c1ccccc1-c1ccccc1	-6%	5
CCOC(=O)c1c(C)oc2ccc(O)c(CN3CCCCC3)c12	12%	3
COc1cccc(OC)c1C(=O)NC(=S)Nc1cc(C(F)(F)F)ccc1Cl	10%	32
CC(C)(C)C(=O)N(Cc1ccccc1)Cc1ccccc1	-2%	-1
O=C1NC(=O)C(CCc2ccncc2)(Cc2ccc3c(c2)OCO3)C(=O)N1	-8%	-6
CC(C(=O)Oc1cccc2cccnc12)N1C(=O)C2C3C=CC(C4CC34)C2C1=O (stereo unspecified)	20%	6
COc1ccccc1CN1CCN(Cc2cccnc2)CC1	-4%	-4
N#Cc1cc(Sc2ccc(Br)cc2)c(-n2nnc3ccccc32)cc1C#N	5%	11
O=C(Nc1cccc(Cn2cc(Cl)cn2)c1)Nc1ccc(F)cc1F	4%	-3
CS(=O)(=O)N1CCN(C(=O)NC23CC4CC(CC(C4)C2)C3)CC1	-4%	-1
CCc1ccc(C(C)NS(=O)(=O)c2ccc3oc4ccccc4c3c2)cc1 (stereo unspecified)	-23%	2
O=C(Cc1ccccc1)NC(=S)Nc1ccc(OC(F)F)cc1	18%	8
O=C(Nc1c(C(=O)c2ccc(Br)cc2)oc2ccccc12)c1cccs1	-6%	-6
CCc1cc2c(=O)c(-c3nc(C)cs3)coc2cc1OCC(=O)OC	-12%	-8
O=C(C(c1ccccc1)c1ccccc1)N1CCN(Cc2ccccn2)CC1	-6%	-13
O=C1c2cccc3c(N4CCOCC4)c([N+](=O)[O-])cc(c23)C(=O)N1c1cc(Cl)ccc1O	-7%	-3
Cc1nc(SCC(=O)c2c(C)[nH]c3ccccc23)c2ccsc2n1	16%	-5
COc1ccccc1OCCCC(=O)NCCc1nc2ccccc2[nH]1	1%	-5
COc1ccc(-c2cc(C(=O)n3cnc4ccccc43)c3ccccc3n2)cc1	-16%	-8
O=C1OC(c2ccccc2)=C/C1=C\c1c(Cl)cccc1Cl	-21%	-8
COC(C(=O)O)(c1ccccc1)c1ccccc1	9%	9
Cc1nc(SCCOc2ccc(F)cc2)c2ccccc2n1	2%	1
CCN(CC)C(=O)C(=O)Nc1ccc(F)c(Cl)c1	-1%	5
COc1cc(CO)c(Br)cc1OCc1cccc(F)c1	2%	1
